Screening data deposited in PubChem by National Center for Advancing Translational Sciences (NCATS).
miR-21 FLuc – raises the signal of a miR-21 reporter; Potency, µM (series often up to 38.3 µM), without a hit: at the top dose reporter change, positive = more light; 340,000 tested, under 10 active; HeLa miR-21 FLuc reporter, luciferase, 48 h; active = well fitted rising curve with a large enough effect; inconclusive = small, poorly fitted or top-dose-only effect; inactive = no such curve, though single readings can be large or run the other way;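 also: % of control where 0% means no effect; miR-21 action dims this reporter so a rising signal means less miR-21 action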
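Compounds were titrated across several concentrations (up to approximately 40 uM) and incubated 48 hours with HeLa miR-21-FLuc reporter cells (miR-21 target sequence downstream of FLuc, endogenous miR-21). Readout was firefly luciferase luminescence after lytic detection reagent.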
GLA inh pH 4.5 – alpha-galactosidase A (human) inhibition, pH 4.5; 230,000 tested, under 10 active; P06280; purified enzyme, 4-MU-alpha-Gal fluorescence, pH 4.5; activity change, negative = inhibition, % at 105 µM; AID 1467; inconclusive = small, poorly fitted or top-dose-only inhibition, or a rising curve; inactive = flat fitted curve, though single readings scatter; no compound was filed as active;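 also: 0% = full activity with enzyme and -100% = basal without enzyme; dose as in the result columns while the protocol names 77 µM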
Rango release inh – inhibitors of RanGTP-induced Rango-importin beta complex dissociation | Potency, µM (highest dose often 46.1 µM), for inactives: at the top dose activity change, negative = inhibition | actives 0.071% (n = 340,000) | Biochemical FRET Rango-importin beta, RanGTP-induced dissociation; active means falling FRET ratio curve, often poorly fitted, with flat reads before Ran was added; inconclusive means other falling curves, or compound fluorescence or quenching; inactive means flat or rising ratio curve;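 also: potency is read from the fitted curve at half-maximal effect; % of control where 0% means no effect; nearly all actives have a fitted effect of over 45% in size; -100% = wells without RanGTP and RCC1; the record marks most hits as doubtful in a second field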
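Rango/importin beta premix (0.1/0.25 uM final), PBS + 1 mM DTT + 0.02% Tween-20 + 0.1% BSA; cpd 5 min RT; FRET pre-read; + RanGTP-RCC1 (0.6 uM Ran, 2 mM GTP, 0.2 uM RCC1); 45 min RT; FRET post-read, ex 430, em 486/530 nm.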
Rango-impB inh – Rango-importin beta binding inhibition; Q14974; Rango CFP/YFP FRET sensor + importin beta, 45 min; Potency, µM (titrated, usually from 92.2 µM), inactives show at the top dose inhibition of complex formation; actives 0.031% (n = 340,000); active = rising FRET ratio curve, often small or poorly fitted; inconclusive = mostly compound fluorescence or quenching in the first reads; inactive = flat curves in all reads;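 also: potency is read from the fitted curve at half-maximal effect; 0% = DMSO wells and 100% = buffer wells lacking importin beta; nearly all actives have a fitted effect of over 15% in size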
Target sequence (Q14974 whole entry, looked up): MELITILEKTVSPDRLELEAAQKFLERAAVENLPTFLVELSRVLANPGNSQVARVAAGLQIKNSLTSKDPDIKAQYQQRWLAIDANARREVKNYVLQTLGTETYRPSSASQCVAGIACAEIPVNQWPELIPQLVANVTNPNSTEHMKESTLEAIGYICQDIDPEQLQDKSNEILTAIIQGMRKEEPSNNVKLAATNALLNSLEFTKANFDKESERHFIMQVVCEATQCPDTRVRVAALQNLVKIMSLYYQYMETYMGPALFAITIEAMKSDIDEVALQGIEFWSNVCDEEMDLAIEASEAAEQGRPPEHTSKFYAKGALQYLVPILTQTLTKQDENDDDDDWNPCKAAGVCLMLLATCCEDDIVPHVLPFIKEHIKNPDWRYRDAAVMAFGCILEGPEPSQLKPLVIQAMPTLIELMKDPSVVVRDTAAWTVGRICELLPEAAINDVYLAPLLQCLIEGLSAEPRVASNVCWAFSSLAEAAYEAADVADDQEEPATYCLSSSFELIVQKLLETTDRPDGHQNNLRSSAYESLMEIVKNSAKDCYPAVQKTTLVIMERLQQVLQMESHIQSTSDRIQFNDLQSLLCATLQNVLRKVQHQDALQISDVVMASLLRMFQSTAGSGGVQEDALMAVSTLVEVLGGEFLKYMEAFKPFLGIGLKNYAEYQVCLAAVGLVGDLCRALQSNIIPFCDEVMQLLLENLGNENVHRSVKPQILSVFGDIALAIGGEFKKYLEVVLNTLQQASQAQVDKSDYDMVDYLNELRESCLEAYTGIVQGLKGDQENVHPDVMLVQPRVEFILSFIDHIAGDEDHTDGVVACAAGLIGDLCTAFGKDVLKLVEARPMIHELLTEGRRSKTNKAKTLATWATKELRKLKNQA
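Inhibition scored from the CFP 486 nm/YFP 530 nm FRET ratio 45 min after adding 0.125 microM importin beta to 50 nM Rango biosensor preincubated 5 min with compound (room temperature, PBS with DTT, Tween-20, BSA). No-importin wells as positive control.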
Starred values were filed as active, the others as inactive; ? = inconclusive; . = no result given. Not all compounds are listed; rates above refer to the full screens.

Order of values – Rango release inh | Rango-impB inh | miR-21 FLuc | GLA inh pH 4.5
#1 Cc1cc2nc(C3CCN(Cc4nnnn4Cc4ccccc4)CC3)[nH]c2cc1C
→ 1% | -1.2% | 17% | 17
#2 Cc1ccc(NC(=O)CO/N=C(\N)c2nonc2N)cc1C
→ 1% | 0.3% | -2% | -3
#3 O=C(N=C1SC2CS(=O)(=O)CC2N1c1ccccc1C(F)(F)F)C1CCCO1 (configuration not stated)
→ -7% | 0.9% | -4% | .
#4 O=C(O)c1sc2cc(C(F)(F)F)cnc2c1-c1ccccn1
→ -4% | 0.2% | 5% | -8
#5 O=C(NCC1CCN(C(=O)c2c(F)c(F)c(F)c(F)c2F)CC1)c1c(F)c(F)c(F)c(F)c1F
→ 1% | -0.2% | 0% | .
#6 CCCCNC(=O)C1CC(c2cccc([N+](=O)[O-])c2)=NO1 (configuration not stated)
→ -1% | ? | -41% | 5
#7 CC(=O)Nc1ccc(C(=O)OCC(=O)N(c2ccccc2)C2CCCCC2)cc1
→ -11% | 4.0% | . | .
#8 O=C(CCN1C(=O)/C(=C\c2ccccc2Cl)SC1=S)N1CCN(c2ccccc2)CC1
→ ? | -3.3% | 0% | 3
#9 CC(=O)Nc1ccc(S(=O)(=O)N(C#N)c2nc(C)cc(C)n2)cc1
→ 1% | -2.8% | -9% | .
#10 COc1ccccc1N(C)S(=O)(=O)c1ccc(C(=O)N(CC(N)=O)C(C)C)cc1
→ -11% | -0.5% | 3% | 5
#11 Cc1ccc(S(=O)(=O)N2CCOCC2)cc1C(=O)NCc1ccc2c(c1)OCO2
→ 6% | 2.5% | -4% | 2
#12 COc1ccc(S(=O)(=O)Nc2cc([N+](=O)[O-])ccc2OC)cc1
→ 27% | -3.0% | 14% | 0
#13 O=C(COC(=O)Cn1cnc2ccccc21)Nc1ccc(F)c(F)c1
→ 9% | -1.5% | . | .
#14 Cc1cc(C)c(NC(=O)C2CC(=O)N(Cc3ccccc3)C2)c(C)c1 (configuration not stated)
→ -16% | 1.4% | 0% | -4
#15 CCOc1cc(C(=O)NCCN2CCOCC2)cc(OCC)c1OCC
→ -8% | -1.9% | -7% | -5
#16 Cc1cccc(C2NC(=O)c3ccccc3N2)c1 (configuration not stated)
→ 20% | -0.7% | . | .
#17 NNc1ncnc2c1cnn2-c1ccccc1
→ 6% | 0.4% | 5% | 0
#18 COc1ccc(S(=O)(=O)N2CN(CCc3ccc(OC)c(OC)c3)c3nc4ccccc4nc32)cc1
→ 4% | -2.4% | -5% | -6
#19 CC(=O)c1c(C)n(CCO)c2ccc(O)cc12
→ 5% | 3.3% | 6% | 1
#20 CCOc1ccc(NC(=O)CSc2nncc(=O)n2N)cc1
→ 1% | 1.7% | 11% | .
#21 C/C(=N/NC(=O)CSc1ccccn1)c1ccc([N+](=O)[O-])cc1
→ -9% | -4.8% | -12% | -22
#22 CC12CC3CC(C1)CC(C(=O)NNC(=O)c1ccncc1)(C3)C2
→ -2% | -0.5% | . | .
#23 CCc1ccc2oc(=O)cc(CN3CCCCC3C)c2c1 (configuration not stated)
→ 1% | 7.4% | -17% | -2
#24 O=C(c1ccncc1)N1CCN(S(=O)(=O)c2ccccc2F)CC1
→ -10% | -0.1% | . | .
#25 COc1cccc(CNC(=O)c2cc(=O)[nH]c3ccc(S(=O)(=O)N4CCOCC4)cc23)c1
→ -1% | -0.1% | . | .
#26 CNC(=S)N1CCc2sccc2C1C (configuration not stated)
→ 18% | 0.0% | 2% | -14
#27 Cc1cccc(-c2nnnn2-c2cccc(C)c2)c1
→ 7% | -0.1% | -1% | -2
#28 CCOc1ccc(/C=N/Nc2nc(C)cs2)c(O)c1
→ 3% | -2.7% | -11% | .
#29 CN(CCc1ccccc1)C(=O)c1ccc(NC(=O)Cc2cccc(NC(=O)C3CCN(C(=O)C4CCC4)CC3)c2)cc1
→ -7% | -1.8% | . | .
#30 O=C(CCC(=O)CCN1CCCCC1)CCN1CCCCC1
→ -6% | 0.3% | -4% | 6

Looked up above:
For Rango release inh, entry 9 is entered as 1%
For Rango release inh, entry 6 is entered as -1%
For Rango release inh, entry 19 is entered as 5%
For miR-21 FLuc, entry 28 is entered as -11%

Compound profiles, from the list above.
Listed for O=C(CCC(=O)CCN1CCCCC1)CCN1CCCCC1 → Rango release inh: -6%; Rango-impB inh: 0.3%; miR-21 FLuc: -4%; GLA inh pH 4.5: 6
Listed for Cc1cc(C)c(NC(=O)C2CC(=O)N(Cc3ccccc3)C2)c(C)c1 (configuration not stated) → Rango release inh: -16%; Rango-impB inh: 1.4%; miR-21 FLuc: 0%; GLA inh pH 4.5: -4

The listing picks up, repeating the five entries before the break.
Order of values – Rango release inh | Rango-impB inh | miR-21 FLuc | GLA inh pH 4.5
#26 CNC(=S)N1CCc2sccc2C1C (configuration not stated)
→ 18% | 0.0% | 2% | -14
#27 Cc1cccc(-c2nnnn2-c2cccc(C)c2)c1
→ 7% | -0.1% | -1% | -2
#28 CCOc1ccc(/C=N/Nc2nc(C)cs2)c(O)c1
→ 3% | -2.7% | -11% | .
#29 CN(CCc1ccccc1)C(=O)c1ccc(NC(=O)Cc2cccc(NC(=O)C3CCN(C(=O)C4CCC4)CC3)c2)cc1
→ -7% | -1.8% | . | .
#30 O=C(CCC(=O)CCN1CCCCC1)CCN1CCCCC1
→ -6% | 0.3% | -4% | 6
#31 O=[N+]([O-])c1ccc(NNS(=O)(=O)c2cc(Cl)ccc2Cl)nc1
→ 16% | -1.3% | 1% | .
#32 CN(c1ccccc1C(=O)Nc1ccc(F)c(Cl)c1)S(C)(=O)=O
→ 10% | -0.8% | 1% | 0
#33 N#CCSc1nnc(C2CCCCC2)n1Cc1ccccc1
→ 0% | 0.1% | -6% | 3
#34 CCOC(=O)C1=C(C)N(C)C(C)=C(C(=O)OCC)C1c1ccncc1
→ 11% | 1.6% | -1% | -3
#35 O=C1c2ccsc2SCCN1Cc1cccc(F)c1
→ -16% | -1.0% | -2% | .
#36 CCCN(C(=O)COC(=O)c1[nH]c(C)c(C(=O)OC)c1C)c1c(N)n(Cc2ccccc2)c(=O)[nH]c1=O
→ ? | ? | . | .
#37 CCn1cc(CNC(=O)CC2C(=O)NCCN2CC(c2ccccc2)c2ccccc2)cn1 (configuration not stated)
→ -5% | ? | -1% | 4
#38 CCCCn1c(SCC(=O)Nc2cc(C)on2)nc2ccsc2c1=O
→ -3% | -2.1% | -3% | 4
#39 COc1ccc(OC)c(C(=O)CSc2nnnn2C)c1
→ -3% | 5.1% | -4% | -1
#40 O=C(NCCN1CCOCC1)c1ccc(F)cc1
→ -4% | -0.3% | -1% | 8
#41 CCCSc1nc(N)c(C#N)c(-c2ccc(C)cc2)c1C#N
→ -1% | -4.4% | -12% | 4
#42 CCN1C(=O)[C@H]2[C@@H](c3ccc(-c4ccc(OC)cc4)cc3)N3CCC[C@@]3(C(=O)OC)[C@H]2C1=O
→ 19% | 3.2% | . | .
#43 COc1cc([N+](=O)[O-])ccc1NC(=S)NNC(=O)CCC(=O)Nc1ccccc1Cl
→ -9% | -1.8% | -48% | .
#44 CCS(=O)(=O)NCCc1cc2ccc(C)cc2[nH]c1=O
→ -14% | ? | -6% | -18
#45 Cc1cccc[n+]1CCCCCCCCCC[n+]1ccccc1C
→ -5% | 2.7% | 29% | 9
#46 O=C(N/N=C/c1ccc([N+](=O)[O-])o1)c1cc(-c2ccc(-c3ccccc3)cc2)nc2ccccc12
→ 8% | 0.4% | 20% | 5
#47 Cn1c(C(=O)OC(C(=O)NCC2CCCO2)c2cccnc2)cc2sccc21 (configuration not stated)
→ 10% | 0.9% | -7% | 3
#48 N#C/C(=C\c1c(Cl)cccc1Cl)c1nc2ccccc2[nH]1
→ ? | 2.0% | -2% | -4
#49 O=C(CCC(=O)Nc1cccc(Cl)c1)N/N=C/c1cc([N+](=O)[O-])ccc1O
→ -4% | 2.1% | -3% | -8
#50 C=CC(COCc1ccccc1)N([C@@H](Cc1ccccc1)C(=O)OC)S(=O)(=O)c1ccccc1Br (some centres not stated)
→ 5% | -0.2% | . | .

Among those listed so far, these contain an NH in an aromatic ring.
Order of values – Rango release inh | Rango-impB inh | miR-21 FLuc | GLA inh pH 4.5
#1 Cc1cc2nc(C3CCN(Cc4nnnn4Cc4ccccc4)CC3)[nH]c2cc1C
→ 1% | -1.2% | 17% | 17
#25 COc1cccc(CNC(=O)c2cc(=O)[nH]c3ccc(S(=O)(=O)N4CCOCC4)cc23)c1
→ -1% | -0.1% | . | .
#36 CCCN(C(=O)COC(=O)c1[nH]c(C)c(C(=O)OC)c1C)c1c(N)n(Cc2ccccc2)c(=O)[nH]c1=O
→ ? | ? | . | .
#44 CCS(=O)(=O)NCCc1cc2ccc(C)cc2[nH]c1=O
→ -14% | ? | -6% | -18
#48 N#C/C(=C\c1c(Cl)cccc1Cl)c1nc2ccccc2[nH]1
→ ? | 2.0% | -2% | -4
